Vaccinia Venus: qHTS for Stage-Specific Inhibitors of Vaccinia Orthopoxvirus: Venus Reporter Primary qHTS; Vaccinia virus Venus reporter expression, fluorescence; Potency, µM (doses to about 36.5 µM), without a hit: at the highest dose activity change, negative = inhibition, actives largely listed as inhibitors; 330,000 compounds, 0.46% hits; active means well fitted inhibition curve with a large enough effect; inconclusive means small, poorly fitted or top-dose-only effect; inactive means no such curve, though single readings can be large or run the other way; tested in A549 cells; also: nearly all actives have a fitted effect of over 30% in size; inactives centre near -10
Vaccinia mCherry: qHTS for Stage-Specific Inhibitors of Vaccinia Orthopoxvirus: mCherry Reporter Primary qHTS. Vaccinia virus mCherry reporter infection, fluorescence; about a quarter of the inactives have no number. Potency, µM (titrated, usually from 36.5 µM), for inactives: at the top dose activity change, negative = inhibition, hits mostly inhibitors. 310,000 compounds, 0.63% hits; active = well fitted inhibition curve with a large enough effect; inconclusive = small, poorly fitted or top-dose-only effect; inactive = no such curve, though single readings can be large or run the other way; tested in A549 cells; also: nearly all actives have a fitted effect of over 35% in size; inactives centre near -10
Starred values were filed as active, the others as inactive; i = inactive; ? = inconclusive; . = no result given; & = joins results of further samples; [ ] = remark or other dose. % is scaled to controls: 0 for no effect and ±100 for the full control effect; potency is read from the fitted curve at half-maximal effect.

SMILES	Vaccinia Venus	Vaccinia mCherry
COc1ccc(-c2noc(N(c3cccc(Cl)c3)c3nc(-c4ccc(OC)c(OC)c4)no3)n2)cc1OC	?	?
Cc1ccccc1-c1cc(C(=O)NCc2cccc(C(F)(F)F)c2)nn1CC1CC(c2cccc([N+](=O)[O-])c2)=NO1 (stereo unspecified)	-19%	-16%
Cc1ccc(C(=O)Nc2cnc3ccccc3c2)cc1	-25%	-27%
O=C(NCc1cccnc1)c1ccc(S(=O)(=O)N2CCCCC2)cc1	-7%	i
CCOC(=O)C1(C)CCCN(C(=O)c2ccccc2OC(F)(F)F)C1 (stereo unspecified)	-6%	11%
CCOC(=O)c1c(NC(=O)CN(C)C2CCN(C)CC2)sc(C(=O)Nc2ccccc2)c1C	?	0%
NC(CCc1ccccc1)c1csc(Nc2ccc(C(=O)c3ccccc3)cc2)n1 (stereo unspecified)	?	-26%
NCCNc1ccc([N+](=O)[O-])c(NC2CC2)c1	-9%	-29%
CCOCCCNC(=O)C(c1ccc(OC)cc1)N(Cc1ccc2c(c1)OCO2)C(=O)CNC(C)=O (stereo unspecified)	-4%	-3%
CC(=O)Nc1ccc(S(=O)(=O)NCc2ccc(C(=O)NCc3ccc(Cl)cc3)cc2)cc1	-17%&-14%	-7%
Cc1cccc(OCc2ccccc2)n1	-1%	-15%
Cc1cc(OC(C)C(=O)N2C[C@H]3C[C@@H](C2)c2cccc(=O)n2C3)c2c(C)c(C)c(=O)oc2c1 (stereo partly specified)	-5%	-1%
CCC(Oc1ccccc1)C(=O)Nc1ccccc1OCc1cc(=O)n2ccccc2n1 (stereo unspecified)	-21%	-10%
Cc1ccc(S(=O)(=O)N2CCCOC2CNC(=O)C(=O)NCc2ccccn2)cc1 (stereo unspecified)	5%	i
Cn1ncc2c(=O)[nH]c(N)nc21	-6%	0%
CCCn1c(SCc2nc(-c3ccc(OC)c(OC)c3)no2)nnc1-c1ccccc1	-14%	-21%
Cc1ccc(SCC(=O)OCC(=O)NCc2ccco2)cc1	-13%	-12%
COc1cccc(N2CCN(c3c(C#N)c(C(F)(F)F)nn3C)CC2)c1	-24%	.
COC(=O)CN1C(=O)[C@H]2[C@@H](c3ccc(C)o3)N3C(=O)CN(CCO)C(=O)[C@@]3(C)[C@H]2C1=O	-3%	-12%
C[C@@H]1CCCCO[C@@H](CN(C)CC2CCCCC2)[C@@H](C)CN([C@H](C)CO)C(=O)c2cc(NS(=O)(=O)c3ccc(Cl)cc3)ccc2O1	10µM*	?
CC(=O)N1c2ccccc2S(=O)(=O)c2ccccc21	-4%	i
CC1(NS(=O)(=O)c2ccc(Cl)s2)CCS(=O)(=O)C1 (stereo unspecified)	-9%	5%
CC(=O)N(c1ccc(Cl)cc1)C1SC(=O)N(c2ccc(C)cc2)C1=O (stereo unspecified)	-14%	i
CCc1nnc(/N=C/c2c(O)n(-c3ccc(Cl)cn3)c(=O)c3ccccc23)s1	-8%	-7%
COC(=O)CCC(=O)OC1(C)C(=O)C=C2C=C(C3CC3)N(CC3CC3)C=C2C1=O (stereo unspecified)	-8%	-14%
Cn1c(=O)c(C(=O)Nc2ncccn2)c(O)c2ccccc21	-11%	-18%
COCCNC(=O)C(c1ccc(C)cc1)N(C(=O)CCC(=O)Nc1ccccn1)c1ccccc1C (stereo unspecified)	-2%	-10%
CCN(CCN(C)C)C(=O)Cn1ncc2c1-c1cc(C)ccc1OC2	3%	-8%
COc1ccc(CNCCC(c2ccccc2)c2ccc(OC(C)C)cc2)cc1OC (stereo unspecified)	-24%	?
Cc1ccc(O)c(Sc2cc(C)ccc2O)c1	?	.
O=C1NC(=S)SC1=Cc1ccc(N(CCCl)CCCl)cc1	23%	-22%
CCOC(=O)c1cc(S(=O)(=O)NC2CCN(C(=O)OCC)CC2)cn1C	-15%	.
CC(C)(C)OC(=O)NCCOC(=O)c1[nH]cnc1C(=O)NCc1ccccc1	-4%	i
CCOC(=O)N1CCN(Cc2nc(N)nc(Nc3ccc(C)cc3C)n2)CC1	-1%	-7%
CC(C)CCNC(=O)C1CCCCN1S(=O)(=O)c1ccc(F)cc1 (stereo unspecified)	-9%	-9%
CC(C)(C)NC(=O)/C(=C/c1ccco1)c1ccccc1	9%	i
C=CC[C@@H](CC(=O)N[C@H](CO)Cc1ccccc1)C(=O)N[C@@H](COC(=O)[C@@H](CC=C)CC(=O)OC(C)(C)C)Cc1ccccc1	-28%	-25%
COc1ccc(Cl)cc1NC(=O)CCn1nc(C)cc1C	-7%	-7%
CCN(CC(=O)NCc1cccs1)C(=O)/C=C/c1ccc(OC)cc1OC	-21%	-9%
COc1ccccc1/C=N/Nc1cc(C)nc2ccc(C)cc12	4%	?
CCC(=O)c1c(NC)cc(C)oc1=O	-9%	10%
COc1ccc(/C=C2\CN(Cc3ccccc3)C/C(=C\c3ccc(OC)c(O)c3)C2=O)cc1O	?	7.9µM*
O=C1NC(=O)C2(CCCC2c2ccccc2)N1 (stereo unspecified)	-6%	-17%
COc1ccccc1-c1nc(-c2cccc(C)c2)no1	-23%	.
Cc1cccc(C)c1NC(=O)CSc1nc2[nH]c(=O)cc(O)c2s1	-10%	-17%
Cc1ccc(/C(O)=C2\C(=O)C(=O)N(CC(C)O)C2c2cccc(F)c2)cc1 (stereo unspecified)	0%	.
OCCN(CC(O)Cn1ccc2ccccc21)CC(O)Cn1ccc2ccccc21 (stereo unspecified)	-21%	-29%
CCCOc1cccn2c(N(C)C(=O)c3ccccc3F)c(CC)nc12	-4%	-11%
CC(C)(C)C(=O)O/N=C(\N)Cc1ccc(-c2csnn2)cc1	-14%	i
COc1ccc(-n2nc(C(=O)NCC(=O)NCCCN3CCOCC3)c3ccccc3c2=O)cc1OC	-11%	i

Some of the entries so far, with two lines to a compound.
The line under a structure holds: Vaccinia Venus	Vaccinia mCherry
Cc1ccc(O)c(Sc2cc(C)ccc2O)c1
    ?	.
O=C1NC(=S)SC1=Cc1ccc(N(CCCl)CCCl)cc1
    23%	-22%
CCOC(=O)c1cc(S(=O)(=O)NC2CCN(C(=O)OCC)CC2)cn1C
    -15%	.
CC(C)(C)OC(=O)NCCOC(=O)c1[nH]cnc1C(=O)NCc1ccccc1
    -4%	i
CCOC(=O)N1CCN(Cc2nc(N)nc(Nc3ccc(C)cc3C)n2)CC1
    -1%	-7%
CC(C)CCNC(=O)C1CCCCN1S(=O)(=O)c1ccc(F)cc1 (stereo unspecified)
    -9%	-9%
CC(C)(C)NC(=O)/C(=C/c1ccco1)c1ccccc1
    9%	i
C=CC[C@@H](CC(=O)N[C@H](CO)Cc1ccccc1)C(=O)N[C@@H](COC(=O)[C@@H](CC=C)CC(=O)OC(C)(C)C)Cc1ccccc1
    -28%	-25%
COc1ccc(Cl)cc1NC(=O)CCn1nc(C)cc1C
    -7%	-7%
CCN(CC(=O)NCc1cccs1)C(=O)/C=C/c1ccc(OC)cc1OC
    -21%	-9%
COc1ccccc1/C=N/Nc1cc(C)nc2ccc(C)cc12
    4%	?
CCC(=O)c1c(NC)cc(C)oc1=O
    -9%	10%
COc1ccc(/C=C2\CN(Cc3ccccc3)C/C(=C\c3ccc(OC)c(O)c3)C2=O)cc1O
    ?	7.9µM*
O=C1NC(=O)C2(CCCC2c2ccccc2)N1 (stereo unspecified)
    -6%	-17%
COc1ccccc1-c1nc(-c2cccc(C)c2)no1
    -23%	.
Cc1cccc(C)c1NC(=O)CSc1nc2[nH]c(=O)cc(O)c2s1
    -10%	-17%
Cc1ccc(/C(O)=C2\C(=O)C(=O)N(CC(C)O)C2c2cccc(F)c2)cc1 (stereo unspecified)
    0%	.
OCCN(CC(O)Cn1ccc2ccccc21)CC(O)Cn1ccc2ccccc21 (stereo unspecified)
    -21%	-29%

(further entries)
SMILES	Vaccinia Venus	Vaccinia mCherry
CNC(=O)C(=O)NCC1OCCCN1S(=O)(=O)c1cccs1 (stereo unspecified)	0%	i
CN(C)CCNc1ccc(-c2n[nH]c(=O)c3ccccc23)cc1[N+](=O)[O-]	-14%	i
COc1ccccc1N1CCN(C(=O)CCCC2=NS(=O)(=O)c3ccccc3N2)CC1	-6%	i
Cn1cccc1/C=N/NC(=O)CNc1ccc2ccccc2c1	-9%	-12%
Cc1ccc(-n2c(SCC(=O)N3CC(=O)Nc4ccccc43)nc3ccccc3c2=O)cc1	?	-14%
O=C(N/N=C\c1ccco1)Nc1cccc(Cl)c1	5%	?
Cc1nc(S(=O)(=O)Nc2ccc3c(c2)OCCO3)cn1C	-5%[7.34 µM]	-4%[7.34 µM]
O=C(NCc1ccco1)/C(=C\C=C\c1ccccc1)NC(=O)c1ccco1	-4%	-14%
CC(=O)NC(=S)Nc1cccc(S(=O)(=O)NC2=NCCC2)c1	10%	-11%
COc1ccc2nccc(/C=C/c3ccnc4ccc(OC)cc34)c2c1	-13%[7.34 µM]	-8%[7.34 µM]
CCc1ccc(OCC(=O)N/N=C(\C)c2ccc(O)cc2O)cc1	-9%	?
COCCNC(=O)COC(=O)c1[nH]c(C)c(C(C)=O)c1C	-19%	.
CN(C(=O)c1ccc2c(=O)n3c(nc2c1)CCCCC3)c1ccccc1Cl	-15%	6%
Clc1ccc(Nc2nc(-c3cccs3)cs2)nc1	-23%	?
CCn1cc(C(=O)NCCCOC)c(=O)c2cc(S(=O)(=O)N(C)C3CCCCC3)ccc21	-6%	-17%
CC(NCC(c1ccco1)N1CCCCC1)C(=O)NC1CCCC1 (stereo unspecified)	-15%	i
COC(=O)[C@@]12C[C@@H](CC(=O)N3CCC(c4ccccc4)CC3)C(=O)N(Cc3ccc4c(c3)OCO4)C1=CCC(C)(C)C2	?	?
CC1(C)CC(=O)C2=C(C1)c1c(ccc3ccccc13)NC2c1ccc(Br)o1 (stereo unspecified)	?	?
COCCNc1nc(Oc2ccccc2)c2sccc2n1	-4%	i
O=C(COC(=O)c1cccc(O)c1)Nc1ccc(Cl)cc1C(=O)c1ccccc1	?	?

The last three entries of the part above are carried over, then new ones follow.
SMILES	Vaccinia Venus	Vaccinia mCherry
CC1(C)CC(=O)C2=C(C1)c1c(ccc3ccccc13)NC2c1ccc(Br)o1 (stereo unspecified)	?	?
COCCNc1nc(Oc2ccccc2)c2sccc2n1	-4%	i
O=C(COC(=O)c1cccc(O)c1)Nc1ccc(Cl)cc1C(=O)c1ccccc1	?	?
COC(=O)[C@@H]1CCCN1Cc1c(C(=O)N2CCCCC2)nc2c(C)cccn12	7%	i
CCCCn1c(N)c(N(CCOC)C(=O)C2CCN(C(=O)c3ccccc3C)CC2)c(=O)[nH]c1=O	6%	i
Cc1cc(NS(=O)(=O)c2ccc(NC(=O)c3ccccc3C)cc2)no1	3%	5%
COc1cc(CCNC(=O)CCCn2c(=O)c3cccn3c3cccnc32)cc(OC)c1OC	-5%	i
CCCCc1nc2cc(C(=O)N3CCCCC3C(=O)OC)ccc2o1 (stereo unspecified)	0%[7.34 µM]	i[7.34 µM]
Cc1cc(C)c(NC(=O)CSC2=Nc3ccccc3C3=NC(CC(=O)NCc4cccs4)C(=O)N23)c(C)c1 (stereo unspecified)	-4%	7%
CNC(=O)C1CCC(=O)N1Cc1c[nH]c2ccccc12 (stereo unspecified)	-6%	i
CCCN1CNc2c(c(=O)[nH]c(=S)n2CCc2cccc(OC)c2OC)C1	-7%	-13%
COc1ccc(Nc2ncnc3c2cnn3-c2ccc(C)cc2C)cc1	13%	-5%
Cc1cc(C)c2nc(SCC(=O)NNC(=O)c3ccco3)c(C)cc2c1	-9%	i
CC(C)(C)c1ccc(OCCC(=O)NNC(=O)c2ccncc2)cc1	-6%	i
COc1ccc(CCN2CC(C(=O)OCC(=O)Nc3c(C)nn(-c4ccccc4)c3C)CC2=O)cc1OC (stereo unspecified)	2%	6%
O[C@@H]1CN(Cc2cccs2)[C@@H](c2ccccc2)C[C@H]1n1cc(C2CC2)nn1	-20%	i
OCC1(CCCc2ccccc2)CCN(Cc2ccc(F)cc2)CC1	-16%	-11%
CN(CCCC(=O)Nc1nccs1)S(=O)(=O)c1ccc(Cl)cc1	-11%	i
COc1ccc(SCCN2CC[C@@H](O)CCC2=O)cc1	-11%&-5%	-23%
C=CCNC(=O)c1ccc(Cl)cc1Cl	-15%	-2%
COc1ccc(NS(=O)(=O)c2cc(NC(=O)CNC(=O)c3cccc(OC)c3)ccc2C)cc1	-19%	-2%
O=C1NC(NS(=O)(=O)c2ccccc2)(C(F)(F)F)C(=O)N1CCc1ccccc1 (stereo unspecified)	-5%&-7%	-8%
Nc1nc(CSCCO)nc(Nc2ccc(F)cc2)n1	-10%	i
CSc1nc(N2CCOCC2)c2c3c(sc2n1)CCC3	-17%	.
COc1ccc(N2CCN(C(=O)C3CCCN(S(=O)(=O)c4c(C)noc4C)C3)CC2)cc1 (stereo unspecified)	-17%	?
COc1ccc(N2CCN(CC(=O)c3c[nH]c4ccccc34)CC2)cc1	-16%	-14%
CC(OC(=O)Cn1[nH]c(=O)c2ccccc2c1=O)C(=O)Nc1ccc(F)cc1Cl (stereo unspecified)	-7%	-7%
COc1cc(/C=C/C(=O)OCC(=O)NCCC2=CCCCC2)cc(OC)c1OC	-7%	-14%
COc1ccc(-c2nc3n(c2C)Cc2ccccc2-3)cc1	-5%	-12%
CCn1c(-c2cc(Cl)ccc2OC)n[nH]c1=S	?	.
Cc1ccc(C)c(S(=O)(=O)N2CCN(C(=O)CSc3ccccc3)CC2)c1	-17%	-8%
C/C(=N\NC(=O)c1ccc(F)cc1)c1ccccn1	?	?
CCc1cccc(NC(=O)CCS(=O)(=O)c2ccc3nc(C)sc3c2)c1	-9%	-13%
Cc1ccc(-c2onc(C)c2C)cc1S(=O)(=O)N1CCc2ccccc21	?	-3%
